# Apaf1 inhib – human Apaf-1 inhibition; reconstituted apoptosome caspase-3 activity, DEVD-Rh110 fluorescence; inhibition, % at 20 µM; AID 489030; 0.71% of 330,000 active; active means inhibition of at least 40% at 20 µM;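 further: plate controls were DMSO wells for no effect and DEVD-CHO caspase inhibitor wells for full effect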
#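 System: reconstituted apoptosome with Apaf-1, cytochrome c, caspase-9, procaspase-3, dATP; Signal: Rh110 fluorescence intensity; Schedule: 30 min compound preincubation, 50 min activation, room temperature; Reagent: cytochrome c trigger plus (Z-DEVD)2-Rh110 caspase-3 substrate.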
# SENP1 inh – blocks the human SENP1 SUMO protease catalytic domain; 0.21% of 360,000 active; Q9P0U3; recombinant SENP1 catalytic domain, CyPet-SUMO1-YPet FRET cleavage; inhibition, % at 10 µM;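 active means inhibition at least 30% at 10 µM, raw YFP signal under a set limit, fluorescence ratio 0.5 to 1.5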;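 further: 0% = enzyme with DMSO and 100% = no enzyme wells; some results filed as inactive read as strong as hits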
#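 Material – human SENP1 catalytic domain · Input – SENP1 enzyme, 20 pM final · Compound dosing – single concentration of 10 µM compound, 0.5% DMSO final · Timing – enzyme reaction for 50 min at room temperature, dark · Measured by – FRET fluorescence in CFP and YFP emission channels · Control set – no-enzyme wells low, DMSO-plus-enzyme wells high control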
# SENP8 inh – blocks human SENP8 cleavage of Nedd8 substrate | 0.64% of 360,000 active | inhibition, % at 20 µM | Q96LD8 | recombinant SENP8, Nedd8 substrate fluorescence; in the data active means inhibition mostly above about 40%, no sharp cut-off; inactive means mostly below about 27%
# PfG6PD inh – PfG6PD (Plasmodium falciparum) enzyme inhibition; inhibition, % at 20 µM; 0.78% of 350,000 active; PfGluPho enzyme, NADPH resazurin-diaphorase fluorescence;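 active means inhibition reaching at least a set limit at 20 µM in the primary screen, cut at about 59% in these data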;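 further: 0% = DMSO wells with substrate and 100% = DMSO wells lacking glucose-6-phosphate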
# HKDC1 inh – HKDC1 (human) hexokinase inhibition; Q2TB90; recombinant HKDC1, G6PDH/diaphorase resazurin coupled fluorescence; inhibition, % at 20 µM; 0.16% of 340,000 active; AID 493160;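 active means inhibition above about 35% when tested at 20 µM, limit read from the data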;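 further: plate controls were DMSO wells with enzyme for no effect and DMSO wells lacking enzyme for full effect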
# Target sequence (Q2TB90 whole entry, looked up): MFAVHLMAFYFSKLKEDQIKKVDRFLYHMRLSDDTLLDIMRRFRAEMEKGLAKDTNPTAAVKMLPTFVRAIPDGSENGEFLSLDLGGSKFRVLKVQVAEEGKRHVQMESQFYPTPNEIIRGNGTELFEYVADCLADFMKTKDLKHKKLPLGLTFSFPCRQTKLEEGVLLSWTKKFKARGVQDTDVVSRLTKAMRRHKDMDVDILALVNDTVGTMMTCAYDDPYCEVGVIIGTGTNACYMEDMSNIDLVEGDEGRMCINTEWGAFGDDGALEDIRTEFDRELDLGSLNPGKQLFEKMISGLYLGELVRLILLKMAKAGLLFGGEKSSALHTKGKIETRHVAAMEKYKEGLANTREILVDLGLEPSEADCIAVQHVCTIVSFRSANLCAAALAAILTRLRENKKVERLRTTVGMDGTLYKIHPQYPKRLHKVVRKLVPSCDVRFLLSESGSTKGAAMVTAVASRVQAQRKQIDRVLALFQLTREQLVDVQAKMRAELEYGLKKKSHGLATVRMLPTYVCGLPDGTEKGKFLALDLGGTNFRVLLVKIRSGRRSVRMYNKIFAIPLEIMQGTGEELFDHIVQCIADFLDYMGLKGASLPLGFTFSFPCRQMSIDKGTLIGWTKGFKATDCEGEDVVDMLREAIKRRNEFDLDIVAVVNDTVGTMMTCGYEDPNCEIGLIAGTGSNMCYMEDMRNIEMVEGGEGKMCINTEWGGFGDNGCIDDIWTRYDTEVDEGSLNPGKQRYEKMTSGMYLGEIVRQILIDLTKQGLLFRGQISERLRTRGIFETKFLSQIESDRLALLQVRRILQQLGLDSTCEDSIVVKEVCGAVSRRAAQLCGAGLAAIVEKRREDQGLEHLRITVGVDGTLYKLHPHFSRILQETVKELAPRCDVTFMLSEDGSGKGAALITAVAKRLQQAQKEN
#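 Incubation: 90 min at room temperature in dark / Material: recombinant HKDC1 (HK5) hexokinase enzyme, produced in-house / Quantity: enzyme 5 µg/mL final / Compound: one dose of 20 µM, 1% DMSO / Reagent: glucose and ATP substrates / Buffer or medium: Tris pH 8.0 buffer with MgCl2, Tween-20, BSA, BME / Technique: resorufin fluorescence at 613 nm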
# Numbers without * were called inactive; i = inactive; . = not tested or not shown.
mol,Apaf1 inhib,SENP1 inh,SENP8 inh,PfG6PD inh,HKDC1 inh
COc1ccc(NS(=O)(=O)c2ccc(NC(=O)c3ccccc3)cc2)nn1,-3,-2,-4,7,-9
CC(=O)Nc1ccc2c(c1)C(=O)N(C1CCCCC1)C2=O,12,-1,i,-1,-8
CC(=O)NS(=O)(=O)c1cccnc1Nc1ccc(Cl)c(Cl)c1,3,1,-56,-29,-2
COc1ccccc1N1C(=O)c2ccc(C(=O)Nc3ccc(C(=O)O)cc3)cc2C1=O,-3,1,20,10,-6
COc1ccc(/C=N/NC(=O)c2ccccc2OC)cc1COc1ccc(C)cc1,17,0,-194,-1,-2
COc1ccccc1C(CC(=O)Nc1ccc(Cl)cc1)c1ccc(OC(C)C)cc1 (stereo not given),1,3,16,5,3
CC(=O)c1cccc(NC(=O)Cn2cnc(S(=O)(=O)N3CCC(C)CC3)c2)c1,8,-3,11,-6,-6
COc1ccc2c(CC(=O)NNC(=O)c3ccc(C)cc3)coc2c1,4,-4,-20,-8,-3
O=C(NC1CCCC1)C1CCN(C(=O)c2ccc(Cl)cc2Cl)CC1,4,-1,-2,-4,-6
COc1ccc(-c2cc(CNC(=O)CN3CCN(C)CC3)on2)cc1,-5,3,19,-2,-3
COc1ccc(OC)c(NC(=O)Nc2cnccn2)c1,-4,2,-2,-1,10
C/C(=N\NC(=O)c1ccc(NS(=O)(=O)c2cccs2)cc1)c1ccc(C(C)(C)C)cc1,21,2,-4,15,12
C=CCn1c(SCC(=O)Nc2cccnc2Cl)nnc1-c1ccccc1F,-12,1,1,0,-14
Cc1cc(C)c2c(CC(=O)O)coc2c1,0,3,19,-11,-5
CCOc1ccc(/C=N/n2c(C)nnc2C)cc1OC,0,0,-11,6,6
COc1cccc(Nc2nc(C)cc(C)c2C(N)=O)c1,-4,-11,13,9,-4
O=C1N(CN2C(=O)C3(OCCO3)c3ccccc32)c2ccccc2C12OCCO2,3,2,13,-5,8
[O-][n+]1c2cc(C(F)(F)F)ccc2c2n1CCN=C2c1ccc(Cl)cc1,9,0,-57,-3,1
CCCNC(=O)COC(=O)c1cc(C)nc2ccccc12,2,8,-23,-19,-2
COc1ccc(Cl)cc1NC(=O)NC(C)c1ccncc1 (stereo not given),1,2,9,42,-5
CCCOc1ccc(-c2csc(N)n2)cc1[N+](=O)[O-],9,1,15,5,-5
NC(=O)C(c1ccc(Cl)cc1)c1ccc(Sc2ccc(Cl)cc2)nn1 (stereo not given),21,1,9,7,-1
COc1ccccc1Nc1ncnc2nc[nH]c12,-3,1,17,0,-1
CCOc1ccc(C)cc1-n1nc2ccccc2n1,2,2,-269,0,4
CCCCC(=O)Nc1ccc(C(=O)Nc2ccc(OC)cc2[N+](=O)[O-])cc1,2,63,27,10,-7
CCOC(=O)CSc1nnc(-c2ccco2)n1-c1ccc(C)cc1,0,1,21,1,0
Cc1ccc(/C=C2/Sc3ccc(C(=O)N4CCN(C)CC4)cc3NC2=O)cc1,26,-9,-22,4,-2
C(=C1/CCCC2=C1Nc1ncnn1C2c1ccccc1)/c1ccccc1 (stereo not given),30,.,.,.,.
Cc1ccc(/C=C2/Sc3ccc(C(=O)N4CCN(c5ccccn5)CC4)cc3NC2=O)cc1,16,-11,-37,21,-1
CCCC(=O)NCCc1cc(OC)c(OC)cc1Br,7,4,16,10,-13
CC1CCN(S(=O)(=O)c2cn(CC(=O)Nc3ccc(C#N)cc3)cn2)CC1,-10,2,13,7,-5
COC(=O)c1sccc1NC(=O)c1c(Cl)cnn1C,4,1,1,2,-5
Cc1cc(C)c2c(CC(=O)NCCc3ccccc3)coc2c1,-3,1,9,5,-3
O=C(CSCc1ccccc1)N/N=C/c1cc2c(cc1Br)OCO2,11,1,16,20,-17
O=C(O)CN1C(=O)SC(Nc2ccc(Cl)cc2)C1=O (stereo not given),0,2,25,-3,-15
CCOc1ccc(-c2ccc(NS(=O)(=O)c3ccc([N+](=O)[O-])cc3)cc2)nn1,3,2,14,-32,6
CCC(C)/C(C)=N/NC(=O)c1ccc(CSc2nc3ccccc3s2)cc1 (stereo not given),10,0,23,-10,2
O=C(Nc1ccccc1)c1cc(S(=O)(=O)N2CCOCC2)cs1,0,2,14,-8,-1
Cc1ccc(Nc2nc(C)cc(C)c2C(N)=O)c(C)c1,5,-1,13,-9,-6
O=C(Cc1ccccc1)NC1CCN(S(=O)(=O)c2cccc(F)c2)CC1,15,3,26,-10,-3
COc1ccc(C(=O)NC(=S)Nc2ccc(S(=O)(=O)Nc3cc(C)on3)cc2)cc1OC,-20,1,11,-12,10
CCOc1ccc(CCNC(=O)c2nnc(CS(=O)(=O)c3ccccc3)o2)cc1OCC,18,1,7,-16,-5
O=C(N/N=C/c1ccc(OC(=O)c2ccccc2Br)cc1)c1ccccn1,-11,3,-1,-5,3
COc1ccccc1CC(=O)Nc1ccc(-c2noc(COc3ccc(Cl)c(C)c3)n2)cc1,4,0,4,5,3
Cc1[nH]c2ccccc2c1C(=O)C(=O)N1CC(C)OC(C)C1 (stereo not given),-10,-1,17,9,-4
COc1ccc(/C=C/C(=O)NC(=S)N2CCN(c3ccccn3)CC2)cc1,-2,0,14,-2,-2
O=C(COc1ccc([N+](=O)[O-])cc1)NNC(=O)c1cccnc1,-3,2,9,7,-1
COc1ccccc1NC(=O)C(=O)N(c1cccnc1)C(C(=O)NC(C)(C)C)c1ccccc1 (stereo not given),-4,5,10,-3,-8
COc1ccc(C)cc1NC(=O)Nc1ccccc1,4,-1,10,17,-7
COc1ccc(NC(=O)c2cc3c(s2)CCC3)cc1S(=O)(=O)N1CCOCC1,38,-32,-44,10,7
CCc1nnc(NS(=O)(=O)c2ccc(NC(=S)NC(=O)c3cccnc3)cc2)s1,-1,-1,8,-4,4
COc1ccc(C(=O)NC(=O)CSc2nnc(-c3ccco3)n2-c2ccccc2)cc1,4,0,9,6,0
CN(C)CCN(C(=O)C1CCCCC1)c1nc2cc3c(cc2s1)OCO3,21,-1,6,11,5
CCCCOc1ccc(-c2csc(N)n2)cc1[N+](=O)[O-],12,2,24,25,-2
Cc1[nH]c2ccccc2c1C(=O)C(=O)N1c2ccccc2CC1C (stereo not given),1,-1,11,42,-2
O=C(OCc1ccc([N+](=O)[O-])cc1)c1cc(=O)c2ccccc2o1,5,2,18,-2,-2
O=C(O)CN1C(=O)SC(Nc2ccc(C(=O)O)cc2)C1=O (stereo not given),1,1,23,-23,-11
O=C(O)CCCCCNC(=O)CSc1nnc(-c2ccco2)n1-c1ccccc1,2,-1,8,-10,-1
O=C(Nc1ccncc1)c1ccc2c(c1)C(=O)N(C1CCCCC1)C2=O,7,0,12,-11,4
CNC(=O)CSc1nnc(-c2ccco2)n1-c1cccc(C)c1C,-9,0,19,-19,-4

# (listing goes on)
mol,Apaf1 inhib,SENP1 inh,SENP8 inh,PfG6PD inh,HKDC1 inh
CCOC(=O)N1CCN(C(=O)COC(=O)c2cc(Cl)c(O)c(Cl)c2)CC1,-6,-1,2,11,3
Cc1cc2nc(CN(C)Cc3c(C(=O)N(C)C)nc4ccc(Cl)cn34)[nH]c2cc1C,11,-5,-18,-11,-9
C=CCn1c(CCNC(=O)c2ccccc2F)nnc1SCC(=O)Nc1ccc(OC)cc1,-14,3,21,0,-6
CC(C)C(C)(C#N)NC(=O)CSc1nnc(C(F)(F)F)n1C (stereo not given),-3,3,24,5,1
O=C(OCC(=O)N1CCc2ccccc21)c1ccccc1F,6,-2,10,-9,-5
Cc1ccc(C(=O)O)cc1NC(=S)NC(=O)c1ccc(-c2ccccc2)cc1,27,0,9,-28,1
CCN1CCCC1CNS(=O)(=O)c1ccc(Cl)c(C(F)(F)F)c1 (stereo not given),-12,2,22,0,-1
CCOC(=O)N1CCN(C(=O)c2ccc(CNS(=O)(=O)c3ccc(OC)cc3)cc2)CC1,6,5,31,-4,-5
CC(C)[C@H](NC(=O)c1ccccc1)C(=O)OCC(=O)c1ccc2c(c1)NC(=O)CO2,-3,3,11,0,2
COCCOc1cc(N)c(Cl)cc1Cl,0,1,-3,-4,-11
CCCCc1c(O)nc2sc3cc(OC)ccc3n2c1=O,3,-2,-1,-16,4
C=CCNCCOCCOc1ccc(Cl)cc1C(C)(C)C,2,0,23,-3,-4
O=c1ccn(Cc2ccc(F)cc2)c2ccnc(C(F)(F)F)c12,5,-1,32,-14,-7
O=C(Nc1ccc(Cl)c(S(=O)(=O)N2CCOCC2)c1)c1cccs1,2,1,8,-3,-4
CCC(CC)C(=O)NC12CC3CC(CC(C3)C1)C2,-1,-1,13,-1,-3

# Of the compounds above, 16 contain a Cl atom.
mol,Apaf1 inhib,SENP1 inh,SENP8 inh,PfG6PD inh,HKDC1 inh
CC(=O)NS(=O)(=O)c1cccnc1Nc1ccc(Cl)c(Cl)c1,3,1,-56,-29,-2
COc1ccccc1C(CC(=O)Nc1ccc(Cl)cc1)c1ccc(OC(C)C)cc1 (stereo not given),1,3,16,5,3
O=C(NC1CCCC1)C1CCN(C(=O)c2ccc(Cl)cc2Cl)CC1,4,-1,-2,-4,-6
C=CCn1c(SCC(=O)Nc2cccnc2Cl)nnc1-c1ccccc1F,-12,1,1,0,-14
[O-][n+]1c2cc(C(F)(F)F)ccc2c2n1CCN=C2c1ccc(Cl)cc1,9,0,-57,-3,1
COc1ccc(Cl)cc1NC(=O)NC(C)c1ccncc1 (stereo not given),1,2,9,42,-5
NC(=O)C(c1ccc(Cl)cc1)c1ccc(Sc2ccc(Cl)cc2)nn1 (stereo not given),21,1,9,7,-1
COC(=O)c1sccc1NC(=O)c1c(Cl)cnn1C,4,1,1,2,-5
O=C(O)CN1C(=O)SC(Nc2ccc(Cl)cc2)C1=O (stereo not given),0,2,25,-3,-15
COc1ccccc1CC(=O)Nc1ccc(-c2noc(COc3ccc(Cl)c(C)c3)n2)cc1,4,0,4,5,3
CCOC(=O)N1CCN(C(=O)COC(=O)c2cc(Cl)c(O)c(Cl)c2)CC1,-6,-1,2,11,3
Cc1cc2nc(CN(C)Cc3c(C(=O)N(C)C)nc4ccc(Cl)cn34)[nH]c2cc1C,11,-5,-18,-11,-9
CCN1CCCC1CNS(=O)(=O)c1ccc(Cl)c(C(F)(F)F)c1 (stereo not given),-12,2,22,0,-1
COCCOc1cc(N)c(Cl)cc1Cl,0,1,-3,-4,-11
C=CCNCCOCCOc1ccc(Cl)cc1C(C)(C)C,2,0,23,-3,-4
O=C(Nc1ccc(Cl)c(S(=O)(=O)N2CCOCC2)c1)c1cccs1,2,1,8,-3,-4

# Some of the compounds tested; the hit share may differ from the screen's.
